From PubChem
UUG fidelity = modulators of yeast start codon fidelity, primary screen, whole organism, S. cerevisiae, single point, plate reader; S. cerevisiae UUG-firefly luciferase reporter, luminescence/redox ratio; activity score, % at 18.7 µM; actives 0.13% (n = 350,000);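 active means replicate mean at a twofold rise or more, about +100% in these data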;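 further: firefly luciferase made from a UUG start codon reports start codon fidelity; reporter light over untreated wells divided by growth signal over untreated wells; some hits fall short of that in this replicate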
eIF4H FP inh = human eIF4H binding inhibitors, primary screen, translation initiation inhibitor project, biochemical, uHTS, fluorescence polarization; Eukaryotic translation initiation factor 4H (Homo sapiens), Q15056; eIF4H fluorescence polarization binding assay; inhibition, % at 35 µM; actives 0.94% (n = 290,000); AID 2012, 2009;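 active means 50% or more with normal probe brightness, or confirmed in later tests; about a fifth of its hits are not listed in these tables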;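 further: calls also rest on retests at 20 µM and on dose response follow-up; 0% = protein and probe with vehicle and 100% = probe without protein; strong numbers were not always called active; many hits fall short of the cut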
HIV Env fusion = inhibitors of HIV-1 Env-driven cell-cell fusion, primary screen, HeLa-JRFL effector, CEM21 target cells, luciferase | inhibition, % at 12.3 µM | actives 1.1% (n = 360,000);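 active means mean replicate inhibition score of at least 50 and every replicate individually at or above 50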;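 further: 0% = plate neutral controls and 100% = maraviroc near 300 nM; one replicate is shown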
Rce1 inhib = yeast Rce1p protease inhibitors, primary screen, biochemical, fluorescence, cell-free homogeneous; AID 2563, 2010; CAAX prenyl protease 2 (Saccharomyces cerevisiae (strain ATCC 204508 / S288c)), Q03530; yeast membranes, quenched prenylated peptide cleavage fluorescence; actives 0.27% (n = 290,000); calls only;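 active means fall in fluorescence gain of 50% or more versus controls, with final raw signal at or below 3038400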;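 further: plate controls were neutral control wells for no effect and wells lacking membranes for full effect; tested at 10 µM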
Target sequence (Q03530 whole entry, looked up): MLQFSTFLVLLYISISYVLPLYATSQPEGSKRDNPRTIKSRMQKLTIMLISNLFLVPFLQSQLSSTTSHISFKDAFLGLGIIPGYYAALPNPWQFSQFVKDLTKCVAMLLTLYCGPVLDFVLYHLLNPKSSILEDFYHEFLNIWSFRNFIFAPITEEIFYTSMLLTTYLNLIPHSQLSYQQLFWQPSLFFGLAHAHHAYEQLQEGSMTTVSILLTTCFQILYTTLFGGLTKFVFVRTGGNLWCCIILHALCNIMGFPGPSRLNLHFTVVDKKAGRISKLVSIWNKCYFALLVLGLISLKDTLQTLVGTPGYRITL
PABP polyA inh = PABP poly(A) RNA binding inhibitors, primary screen, biochemical, fluorescence polarization, uHTS; actives 1% (n = 290,000); Polyadenylate-binding protein 1 (Homo sapiens), P11940; inhibition, % at 35 µM;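 active means 50% or more with normal probe brightness, or confirmed in later tests; about a fifth of its hits are not listed in these tables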;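 further: calls also rest on retests at 20 µM and on dose response follow-up; controls were probe without protein and protein plus probe with vehicle; some compounds called inactive have numbers as strong as hits; many hits fall short of the cut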
MT1-MMP act inh = blockers of MT1-MMP proenzyme processing, primary screen, HT1080 RFP-PRO-GFP cells, GFP/RFP fluorescence. Matrix metalloproteinase-14 (Homo sapiens), P50281. GFP/RFP ratio fluorescence, overnight; percent of plate control window, DMSO zero. GFP/RFP ratio change, % at 20 µM. actives 0.061% (n = 360,000). AID 651647, 2012;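 active means GFP/RFP ratio change of at least 30% with cell ATP level not reduced by more than half and red fluorescence within 50% of control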; further: strong numbers were not always called active
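Assay system: HT1080 cells carrying an RFP-PRO-GFP reporter | Dosing: Single dose of 20 µM compound, 1% DMSO final | Incubation: Cells overnight before dosing, compound overnight, 37 °C, 5% CO2 | Evaluation: GFP/RFP fluorescence ratio | Control set: DMSO and RFP-L50D-GFP cell wells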
CSC inhib = cancer stem cell viability inhibitors, primary screen, luminescence; cancer stem cell-like cells viability; inhibition, % at 7.5 µM; actives 1.1% (n = 300,000); AID 2717, 2010;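 active means mean at 75% or more and at least half the replicates too; tested in HMLE shEcad cells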;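 further: 0% = median of negative and 100% = median of positive control wells; the first replicate is given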
eIF4H FP inh retest = second read-out of eIF4H FP inh, no call of its own (marks repeat the call); inhibition, %; compound at 20 µM; confirmation average;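 mean of two retest wells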
PABP polyA inh retest = further read-out of PABP polyA inh, marked with its call; inhibition, %; compound at 20 µM; confirmation repeats;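 mean of two retest wells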
MT1-MMP act inh RFP = further read-out of MT1-MMP act inh, marked with its call; RFP signal change, %; measured here: RFP expression control read;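 0 = vehicle wells; hits needed this value within 50% of zero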
Numbers without * were called inactive; i = inactive; nt = not tested or not shown. Not all compounds are listed; the hit share may differ from the screen's.

SMILES	UUG fidelity	eIF4H FP inh	HIV Env fusion	Rce1 inhib	PABP polyA inh	MT1-MMP act inh	MT1-MMP act inh RFP	CSC inhib	others
O=C(Nc1ccccc1Br)c1cccc2ccccc12	7	nt	12	i	nt	3	1	1
C=CCNc1cnn(-c2ccc(C)cc2)c(=O)c1Sc1ccc(C)cc1	3	-7	-4	i	-7	-3	-2	11
COC(=O)Nc1nnc(-c2ccccc2Cl)s1	-13	-5	nt	i	0	8	6	nt
COC(=O)C1=C(C)N(CC2CCCO2)C(=O)C1 (stereo not given)	1	-4	-44	i	1	-1	0	0
CN(C)c1nc2c(c(=O)[nH]c(=O)n2C)n1Cc1ccccc1Br	-15	-2	-23	i	-14	1	-2	2
CN(C1CCCCC1)S(=O)(=O)c1ccc(NC(=S)NC(=O)c2cccs2)cc1	-12	-6	2	i	-8	0	-6	4
CCN(CC)S(=O)(=O)c1cccc(NC(=O)COc2ccc(C#N)cc2OC)c1	nt	-7	nt	i	2	4	-6	nt
CCCC(c1nnnn1CC(=O)OCC)N(Cc1cc2ccc(C)cc2[nH]c1=O)C1CCCC1 (stereo not given)	0	-2	nt	i	20	nt	nt	-3
CCC(=O)NS(=O)(=O)c1ccc(N=NN2CCCCC2)cc1	-12	1	-1	i	-6	0	8	nt
Cc1ccc(C)c(S(=O)(=O)N2CCCC2CNC(=O)C(=O)NCCc2ccccc2)c1 (stereo not given)	-1	nt	9	i	nt	-2	-3	-7
O=C(COC(=O)c1cccnc1Cl)NC1CCCCC1	5	nt	nt	nt	nt	2	-1	-17
CCCCCCCCCCSc1n[nH]c(NC(C)=O)n1	-7	2	nt	i	5	8	2	36
Cc1ccc(CC(NC(=O)c2ccccc2)C(=O)NCC(=O)O)cc1 (stereo not given)	1	-2	4	i	6	2	-2	-3
CC(=O)N(C)c1ccc(N=Cc2c(O)ccc3ccccc23)cc1	-9	-5	10	i	-8	-3	4	-12
Cc1cccc(NC(=O)C(=O)NCc2ccc3c(c2)OCO3)c1C	-20	-2	25	i	-4	2	2	1
CCN(C(=O)COC(=O)/C=C/c1ccc(OC(F)F)c(OC)c1)C1CCS(=O)(=O)C1 (stereo not given)	18	nt	1	nt	nt	-2	3	nt
O=C(O)[C@@H]1Cc2ccccc2N1	nt	-7	15	i	-2	-9	4	2
O=c1n(-c2ccccc2)c(=O)n2n1CCC2	-20	-4	5	i	-3	10	5	-11
O=C(CC1OC(=O)c2ccccc21)NCC1COc2ccccc2O1 (stereo not given)	-6	nt	-2	i	nt	-3	0	-13
CCn1c(SCC(=O)Nc2oc(-c3ccccc3)c(-c3ccccc3)c2C#N)nnc1-c1cc(OC)cc(OC)c1	-20	2	nt	i	1	2	-6	nt
COCCCNC(=O)c1ccc(N2CCCC2)c(NS(=O)(=O)c2ccc(C)cc2)c1	-11	-5	-18	i	6	-4	0	3
Cn1nnc2cc(NC(=O)N3CCN(c4ccccn4)CC3)ccc21	-17	7	27	i	3	2	2	-8
O=C(O)CCC(=O)c1ccc2c(c1)OCCO2	-7	-11	-13	i	-1	-1	6	-4
CC(=O)Nc1sc2c(c1C(=O)N1CCOCC1)CCCCC2	-10	-7	-6	i	-3	6	5	9
CC(=O)N1N=C(c2cccc(Br)c2)OC12CCCC2	nt	-4	3	i	-16	-2	-3	-6
O=C(O)c1cccc(NC(=S)NC(=O)c2ccncc2)c1	-23	-5	28	i	22	0	1	-7
Cn1nc(C(=O)Nc2cccc(S(=O)(=O)N3CCCCC3)c2)c2ccccc2c1=O	-11	nt	-9	nt	nt	1	0	nt
COc1cccc(-n2c(Cc3cc(=O)[nH]c(=O)[nH]3)nnc2SCC(=O)N2CCCC2)c1	nt	15	-73	i	9	1	13	7
CCn1cc(CNCc2ccc(OCC(O)CN(C)Cc3ccccc3)cc2)cn1 (stereo not given)	-5	6	nt	i	27	5	0	nt
COCCNC(=O)CN(CCc1ccccc1)S(=O)(=O)c1ccc(OC)cc1	-9	2	-2	i	-4	-3	-1	0
CCCCNC(=O)CSc1nc2cc3c(cc2c(=O)n1CCC(=O)NCCc1ccc(OC)c(OC)c1)OCO3	nt	-5	14	i	-9	0	0	-11
COCCn1c(=N)c(C(=O)NCc2ccco2)cc2c(=O)n3ccccc3nc21	5	113*	-96	nt	79*	-10	-1	-4
COc1ccccc1NC(=O)CCSc1nnc(-c2ccco2)o1	-4	13	3	i	2	1	2	-10
CCOC(=O)CSc1nnc(NC(=O)CN2CCCCC2)s1	-5	-11	-5	i	-7	0	2	-5
O=C(O)CC(c1ccc(Cl)cc1)n1cccc1 (stereo not given)	0	-6	nt	i	4	3	3	1
CC12CC3CC(C)(C1)CC(CN)(C3)C2	-15	-6	nt	i	-1	-3	2	-9
CCOc1ccc(C(CC(=O)O)NC(=O)Cc2ccc(Cl)cc2)cc1 (stereo not given)	-21	-9	-5	i	-4	3	3	-10
NC(=O)c1ccccc1NC(=O)c1cccc(C(=O)Nc2ccccc2C(N)=O)n1	1	nt	24	i	nt	0	-3	-1
Nc1c(C(=O)Nc2ccc3c(c2)OCCO3)nnn1Cc1cccc(Cl)c1	nt	nt	nt	i	nt	2	-3	70
COc1ccc(OC)c(N(CC(=O)N2CCCC2)S(=O)(=O)c2ccccc2)c1	-5	-4	7	nt	0	-5	-3	-5
CCOc1ccc2oc(C(=O)Nc3ccc4c(c3)OCO4)c(C)c2c1	-2	8	-51	i	-4	0	1	25
CCOC(=O)c1cc(-c2cccnc2)nn1-c1ccccc1	8	-4	33	i	0	2	1	-7
O=C(NCc1ccccc1)C(=O)NCC1OCCN1C(=O)c1cccs1 (stereo not given)	-3	-3	-7	i	4	5	3	-5
CCOc1ccc(-c2cc(C(=O)NN3CCN(C)CC3)c3cc(Cl)ccc3n2)cc1	nt	6	-6	i	-2	nt	nt	4
Cc1cc(C)c(NC(=O)COC(=O)c2nc3nccc(C)n3n2)c(Cl)c1	-7	nt	14	nt	nt	2	4	-16
N#Cc1csc(CCNC(=O)c2ccccc2)n1	-21	nt	-52	nt	nt	-2	-2	nt
CCc1cccc(N=c2c([N+](=O)[O-])nn(-c3ccc(Cl)cc3)n2O)c1	nt	3	nt	i	-2	2	-6	nt
CC(=O)Oc1ccc(-c2nc3ccccc3c(=O)o2)cc1	-10	-11	2	i	0	-4	2	0
CC1SCC(=O)N(CC(=O)NC2CCCCC2)C1=O (stereo not given)	nt	-4	12	i	-4	1	1	7
O=C(CCN1C(=O)c2ccccc2C1=O)N(CCO)Cc1ccccc1	-4	3	-19	i	-3	2	3	nt
CC(/C=C/c1cccc([N+](=O)[O-])c1)=N\NC(=O)c1ccncc1	nt	-3	20	i	-5	-1	2	3
COc1ccc(NC(=O)Cn2nnc(C(=O)NCc3cccs3)c2N)cc1Cl	-20	53	0	i	16	4	1	3	eIF4H FP inh retest=8;PABP polyA inh retest=19
O=C(CCN1C(=O)COc2ccccc21)NCCCN1CCN(c2ccc(F)cc2)CC1	-2	-15	-2	i	-3	-1	0	4
COc1ccc(C(=O)Nc2ccc(OCc3ccccc3)cc2)cc1[N+](=O)[O-]	-16	-5	-51	i	-2	2	1	-8
CN(CC(=O)Nc1ccccc1C(F)(F)F)C(=O)CC1OC(=O)c2ccccc21 (stereo not given)	21	10	-10	i	19	-1	6	-13
Cc1cc(C)n2c(SCC(O)=C(C#N)c3nc4ccccc4[nH]3)nnc2n1	-33	nt	-113	nt	nt	-7	6	nt
O=C(CCN1C(=O)c2ccccc2S1(=O)=O)Nc1ccc(C(=O)O)cc1	4	-11	12	i	-10	2	12	-19
CC1CC(C)CN(C(=O)C2CCN(S(=O)(=O)c3c(Cl)cccc3Cl)CC2)C1 (stereo not given)	-14	-11	nt	i	-4	-2	-2	nt
COc1ccc(N2C(=O)S[C@@H]3CS(=O)(=O)C[C@@H]32)cc1	-11	-1	4	i	11	2	5	-4
Cc1sc2ncnc(N3CCC(C(=O)NNC(=O)c4ccc(F)cc4)CC3)c2c1C	-23	nt	46	i	nt	-6	-14	-2

Quoted at random: 2 records from the list.
SMILES	UUG fidelity	eIF4H FP inh	HIV Env fusion	Rce1 inhib	PABP polyA inh	MT1-MMP act inh	MT1-MMP act inh RFP	CSC inhib	others
COc1ccc(NC(=O)Cn2nnc(C(=O)NCc3cccs3)c2N)cc1Cl	-20	53	0	i	16	4	1	3	eIF4H FP inh retest=8;PABP polyA inh retest=19
COc1ccc(C(=O)Nc2ccc(OCc3ccccc3)cc2)cc1[N+](=O)[O-]	-16	-5	-51	i	-2	2	1	-8

Going on with the list:
SMILES	UUG fidelity	eIF4H FP inh	HIV Env fusion	Rce1 inhib	PABP polyA inh	MT1-MMP act inh	MT1-MMP act inh RFP	CSC inhib	others
CC1(NC(=O)Cc2ccc(Cl)c(Cl)c2)CCS(=O)(=O)C1 (stereo not given)	-11	nt	-1	nt	nt	-3	1	nt
Cc1ccccc1OCCCC(=O)Nc1ccc(Br)cc1	-24	-5	-24	i	0	5	3	31
O=C(Nc1ccccn1)c1cccc(S(=O)(=O)N2CCCc3ccccc32)c1	-23	nt	nt	nt	nt	1	-14	-14
O=c1c2ccccc2[nH]c2ccc(O)cc12	-19	92*	4	i	68*	-13	-3	-3
COC(=O)C(CC(C(=O)OC)C(=O)OC)C(=O)OC	-12	-12	nt	i	-3	-1	2	1
Cc1c(CCC(=O)N[C@@H](C)C(=O)O)c(=O)oc2c(C)c3oc4c(c3cc12)CCCC4	-1	-1	2	i	21	1	-2	-11
CCOc1cc(N2CCOCC2)c(OCC)cc1NC(=O)c1ccc(S(=O)(=O)N(C)C)cc1	1	-4	3	i	-8	-2	3	4
C=CCn1c(SCC(=O)N2CCN(C(=O)OCC)CC2)nc2c([nH]c3ccccc32)c1=O	-29	nt	17	nt	nt	1	1	nt
CN(c1ccccc1C(=O)Nc1ccc(S(=O)(=O)N2CCCCC2)cc1)S(C)(=O)=O	11	-11	-14	i	13	-2	-1	-17
CC(C)C[C@H]1CNC(=O)C(=O)N1CC1CCN(CCC(C)(C)C)CC1	3	nt	-24	nt	nt	4	7	nt
CCc1cccc(C)c1N=Cc1c(O)c2ccccc2oc1=O	-12	-12	14	i	-6	-11	-4	13
N=c1n(CCO)c2ccccc2n1CCOc1ccc(Cl)cc1Cl	6	-4	-16	i	-5	-3	-2	12
COC(=O)[C@@H]1C[C@@H]2CC[C@@H](O)C[C@@H]2N1Cc1ccc(C(F)(F)F)cc1	-9	14	-8	i	3	-2	0	-2
COC(=O)c1cc(/C=C/c2ccccc2)on1	-9	-4	nt	i	-3	3	0	1
O=C(NCC(c1cccnc1)N1CCN(c2ccccc2)CC1)C1CCCCC1 (stereo not given)	nt	0	nt	i	8	-1	-2	-2
O=C(N/N=C/c1c[nH]c2ccccc12)c1ccc([N+](=O)[O-])cc1Cl	-8	-6	nt	i	-4	4	-1	11
CC1Oc2ccccc2N(CC(=O)NC2CCCC2)C1=O (stereo not given)	-19	3	-18	i	4	1	1	-5
C=CCOc1ccc(C=Nc2ccc(C)c(Cl)c2)c(O)c1	nt	22	nt	i	-1	-2	-2	0
CN1CCN(c2ccc(Cl)cc2NC(=O)/C=C/c2cccc(F)c2)CC1	nt	-5	2	i	4	-6	-1	31
CN(C)CCCN=c1cc(-c2ccccc2)oc2ccc(Cl)cc12	nt	-10	-54	nt	-16	5	5	nt
